# Source: PubChem BioAssay
# Arbovirus inh – blocks arbovirus infection. arbovirus infection cell-based antiviral screen. inhibition, % at 10 µM. hit rate 0.37% among 200,000;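 active = inhibition from about 30%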;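 also: bluetongue infection of BSR cells; cell survival read as ATP light after 72 h; 0% = infected wells without compound and 100% = uninfected wells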
# Mtb growth – M. tuberculosis H37Rv growth inhibitors, H37Rv strain (AID 1626). inhibition, % at 10 µM, or IC50 in µM where a hit was titrated. hit rate 0.95% among 220,000. M. tuberculosis H37Rv growth inhibition; higher % means a stronger effect;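 active = confirmed in a dose series; inconclusive = inhibition above 80% but not taken into the dose series; inactive = below 80% or under 30% at every dose of the series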;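 also: bacteria incubated seven days before Alamar blue readout; 0% = bacteria only wells and 100% = bacteria with antibiotic wells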
# RecA intein inh – Mtb RecA intein splicing inhibition; P9WHJ3; cell-free RecA intein splicing, fluorescence; inhibition, %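 (about 9 µM by stock and volumes)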; hit rate 0.75% among 290,000; AID 2221; in the data active = inhibition above about 30%; inconclusive = no clear call, values can overlap the other calls;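 also: 0% = vehicle wells and 100% = reference inhibitor control wells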
# Target sequence (P9WHJ3 whole entry, looked up): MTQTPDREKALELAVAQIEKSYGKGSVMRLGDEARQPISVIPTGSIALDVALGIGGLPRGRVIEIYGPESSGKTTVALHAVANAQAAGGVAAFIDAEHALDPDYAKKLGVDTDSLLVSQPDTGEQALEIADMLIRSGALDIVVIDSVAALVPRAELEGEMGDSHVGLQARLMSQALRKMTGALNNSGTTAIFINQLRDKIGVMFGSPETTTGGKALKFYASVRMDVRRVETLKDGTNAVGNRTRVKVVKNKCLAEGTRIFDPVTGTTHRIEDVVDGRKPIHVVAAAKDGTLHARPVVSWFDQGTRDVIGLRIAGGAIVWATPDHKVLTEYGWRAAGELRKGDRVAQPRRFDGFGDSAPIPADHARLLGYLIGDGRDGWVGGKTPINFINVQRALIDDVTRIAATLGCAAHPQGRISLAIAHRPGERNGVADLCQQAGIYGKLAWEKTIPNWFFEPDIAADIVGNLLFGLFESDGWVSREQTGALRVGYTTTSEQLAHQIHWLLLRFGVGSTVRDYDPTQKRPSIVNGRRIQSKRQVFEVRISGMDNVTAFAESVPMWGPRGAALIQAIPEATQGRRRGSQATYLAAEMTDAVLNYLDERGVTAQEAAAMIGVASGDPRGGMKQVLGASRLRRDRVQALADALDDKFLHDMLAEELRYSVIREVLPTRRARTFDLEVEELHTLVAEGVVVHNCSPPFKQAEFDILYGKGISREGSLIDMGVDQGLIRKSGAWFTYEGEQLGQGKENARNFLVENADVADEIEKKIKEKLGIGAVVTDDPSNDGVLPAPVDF
# Mtb bLac sens – beta-lactam sensitization of Mtb H37Rv; M. tuberculosis H37Rv growth with meropenem, percent inhibition; hits of this screen are not shown here; inhibition, % at 25 µM; hit rate 0.27% among 330,000;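 active = about 74% or more and at least 40 points above the plate without the antibiotic, then above 30% in a dose series; inconclusive = first-round hits that could not be retested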;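 also: growth measured after seven days incubation then overnight dye step; 0% = bacteria only wells and 100% = bacteria with antibiotic; twin plates without the antibiotic show which effects depend on it; some results filed as inactive read as strong as hits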
# YopH PTP inh – YopH (Yersinia) phosphatase inhibition; fluorescence Ex485/Em525; inhibition, %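 (about 10 µM by stock and volumes)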; hit rate 0.16% among 140,000;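 active = inhibition of 50% or more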;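 also: controls were vehicle for no effect and minimum signal wells for full effect; inactives centre near -20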
# Arbovirus inh repeat – second read-out of Arbovirus inh, no call of its own (marks repeat the call); inhibition, %; measured here: 10K subset replicate screen; many hits read low in the repeat;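 first of two repeat runs on a subset; 0% = infected and 100% = uninfected wells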
# Starred values were filed as active, the others as inactive; u = inconclusive; x = no result given. A portion of the library; count on the stated rates, not on these rows.
SMILES,Arbovirus inh,Mtb growth,RecA intein inh,Mtb bLac sens,YopH PTP inh,others
O=C(c1ccccc1F)N(Cc1ccc(F)cc1)C1CCS(=O)(=O)C1 (centres undefined),-3.6,-4.2%,1.7,-12.3,-35.7,
CCC(C(=O)OCC(=O)Nc1cc(Cl)ccc1Cl)c1ccccc1 (centres undefined),15.5,9.6%,15.3,4.8,-23.5,
Cc1ccc(C)c(NC(=S)NC(C)C(c2ccccc2)N2CCN(C)CC2)c1 (centres undefined),-13.9,6.8%,-0.5,-13.2,x,
COc1ccc(/C=N/OCC(=O)NC(c2ccccc2)c2ccccc2)c(OC)c1,-6.7,9.0%,0.3,-1.4,-7.4,
COc1ccc(C2SCCN2S(=O)(=O)c2ccc(NC(C)=O)cc2)cc1 (centres undefined),0.0,-7.0%,-0.9,-3.8,-21.5,
COC(=O)c1[nH]c2cccc(Cl)c2c1NC(=O)CN1CCN(CCO)CC1,2.2,6.0%,-0.1,-11.6,-48.6,
COc1ccc(N2C(S)=C(C#N)C(=O)NC2c2ccc(OC)c(OC)c2)cc1 (centres undefined),-3.8,-1.9%,-2.2,-6.3,x,
CCc1cccc2c(C(=O)COC(=O)/C=C/c3ccc(O)c(OC)c3)c[nH]c12,-43.6,3.9%,14.5,86.8,-32.0,
CN(C)C(CNC(=O)CN1C(=O)NC2(CCc3ccccc32)C1=O)c1ccco1 (centres undefined),-0.1,-5.0%,-1.9,-16.1,-43.8,
Cc1cccc(-c2oc3ccc(-c4ccc5c(c4)OCO5)cc3c2-c2ccc(OC3CCCCO3)cc2)c1 (centres undefined),x,2.4%,-0.9,2.7,x,
Nc1nc(-c2ccccc2)c(N=Nc2ccc(Cl)cc2)s1,10.9,9.2%,-0.7,3.0,6.6,
CCCc1cc(=O)[nH]c(SCC(=O)Nc2c(C)cccc2C)n1,7.8,-6.1%,1.3,0.3,-1.5,
CCn1cc(C2=NOC(C(=O)Nc3cccc(C(C)=O)c3)C2)c(C)n1 (centres undefined),7.3,-4.0%,-0.1,-4.7,-12.9,
COc1ccc(C2C(C#N)=C(/N=C/N3CCOCC3)OC3=C2C(=O)CC(C)(C)C3)cc1OC (centres undefined),4.4,2.9%,-2.2,x,-4.8,
O=C(c1ccc2c(c1)OCO2)N1CCOCC1,-3.0,-7.2%,-1.2,4.7,-40.2,
O=C(N/N=C\c1cc(Br)cs1)C1COc2ccccc2O1 (centres undefined),-4.2,7.3%,-2.2,90.7,-0.8,
CC(=O)N(CCCN1CCOCC1)Cc1ccncc1,8.6,2.3%,-0.5,-5.2,-32.7,
Cc1ccc(NC(=S)N(CCN2CCCCC2)Cc2ccco2)cc1,24.0,-0.9%,-1.3,-1.9,-16.2,
CN(CCC1CCCCO1)Cc1cn(C)nc1-c1ccc2c(c1)OCCO2 (centres undefined),1.8,3.1%,-1.8,2.2,x,
O=C(Nc1c2c(nn1-c1ccc(F)cc1)CS(=O)C2)c1ccc2c(c1)OCO2 (centres undefined),x,x,0.6,-7.2,x,
CCOCc1nnc(NC(=O)c2ccc3c(c2)OCO3)s1,x,x,-0.2,-2.5,x,
c1ccc(C2=Nn3c(nnc3-c3cccnc3)SC2)cc1,0.7,-3.0%,2.8,u,-38.6,
COc1ccccc1NC1=Nc2cccc3cccc1c23,x,-0.7%,5.2,4.4,x,
C/C(=N\NC(=O)CSc1nc(C)cc(C)n1)c1ccc([N+](=O)[O-])cc1,x,-8.2%,-4.5,-0.8,x,
O=C(Cc1ccsc1)N1CCc2c([nH]c3ccccc23)C1c1ccccn1 (centres undefined),-1.0,-1.5%,-12.2,2.8,x,
CC1(C)C(=O)Nc2ccccc2N1C(=O)COC(=O)/C=C/c1ccc(OC(F)F)cc1,x,x,0.2,-1.4,x,
COc1ccc(OC)c(N=C(C)C2=C(O)COC2=O)c1,-1.6,-8.9%,-3.3,1.5,-18.8,
O=C(Cc1ccccn1)Nc1ccccc1,2.3,2.6%,2.2,-5.3,-25.6,
CCN(CC)C(=O)c1ccc(S(=O)(=O)Cc2ccc(C)cc2)c([N+](=O)[O-])c1,x,x,3.5,9.4,x,
COc1ccc(NC2CS(=O)(=O)CC2OC(=O)c2ccc(F)cc2)cc1 (centres undefined),5.6,-7.0%,-0.7,7.3,-35.5,

# Part of the list above in order of length of the SMILES, highest first.
SMILES,Arbovirus inh,Mtb growth,RecA intein inh,Mtb bLac sens,YopH PTP inh,others
O=C(Cc1ccsc1)N1CCc2c([nH]c3ccccc23)C1c1ccccn1 (centres undefined),-1.0,-1.5%,-12.2,2.8,x,
c1ccc(C2=Nn3c(nnc3-c3cccnc3)SC2)cc1,0.7,-3.0%,2.8,u,-38.6,
CCOCc1nnc(NC(=O)c2ccc3c(c2)OCO3)s1,x,x,-0.2,-2.5,x,
COc1ccccc1NC1=Nc2cccc3cccc1c23,x,-0.7%,5.2,4.4,x,
O=C(Cc1ccccn1)Nc1ccccc1,2.3,2.6%,2.2,-5.3,-25.6,

# New compounds follow.
SMILES,Arbovirus inh,Mtb growth,RecA intein inh,Mtb bLac sens,YopH PTP inh,others
Cc1cc(C)n(-c2cc(N3CCN(C(=O)c4cccc(F)c4)CC3)ccc2[N+](=O)[O-])n1,-1.9,2.8%,1.7,-0.1,-12.6,
CCc1ccc(/C=C2\SC(=S)N(CCC(=O)N3CCN(C)CC3)C2=O)cc1,-0.3,3.4%,6.0,4.2,x,
CN(/N=C/c1cc(Br)cc(Br)c1O)c1ccccc1,x,x,2.3,6.1,x,
Cc1ccc(CNC(=O)CN2C(C)CCCC2C)cc1 (centres undefined),-6.6,-0.8%,1.4,-5.0,x,
Cc1ccc(Cl)c(OCC(=O)Nc2cccnc2)c1,x,x,3.0,1.5,x,
S=C(Nc1ccc(Cl)cc1)Nc1ccc2cn[nH]c2c1,11.4,-4.5%,7.6,-0.3,x,
CCN(CC)S(=O)(=O)c1cccc(C(=O)NNC(=O)C2=NN(c3ccccc3)C(=O)CC2)c1,x,x,-1.4,63.5,x,
CCCCNC(=O)Nc1nnc(-c2ccc(OCC)cc2)o1,-5.9,u,x,98.3,-21.4,
OC(COC(c1ccc(Cl)cc1)c1ccc(Cl)cc1)CN1CCc2ccccc2C1 (centres undefined),-39.6,u,30.3*,100.2,-8.7,
CCN(c1ccccc1)S(=O)(=O)c1ccc(Cl)c(NC(=O)COC(=O)c2ccc(Cl)c(N)c2)c1,-3.9,-3.1%,-0.3,7.5,-15.5,
COc1cc(C(=O)NCc2nnc(SCC(=O)NC3CCCCC3)o2)cc(OC)c1OC,x,x,2.9,-3.6,x,
COCCN(C(=S)Nc1cccc(C)c1)C(C)c1cccnc1 (centres undefined),6.2,-3.4%,-0.2,-5.9,x,
CC(=O)COc1ccc2c(-c3ccccc3)cc(=O)oc2c1C,x,x,0.0,-0.6,x,
CCOC(=O)c1cc(-c2ccccc2)sc1NC(=O)c1cc(OC)c(OC)c(OC)c1,-0.2,-0.5%,-26.2,3.8,-15.4,
OCCCN1CCN(CCCOc2ccccc2-c2ccccc2)CC1,-33.1,9.2%,-2.0,8.6,2.8,
CC(C)Cc1cc(C(=O)NCCCN2CCOCC2)no1,10.6,x,2.7,-7.0,x,
CC(C)CCSc1nnc(N)s1,x,-1.0%,0.5,13.7,x,
COc1ccccc1N1CCN(CC(=O)c2c(C)[nH]c3cc(C)ccc23)CC1,-9.9,6.4%,8.7,8.6,-0.5,
CC(=O)c1ccc2c(c1)C1C=CCC1C(c1cc3c(cc1Br)OCO3)N2 (centres undefined),x,x,22.9,44.5,x,
O/N=C/Cc1[nH]c2ccccc2c1-c1ccccc1,x,x,6.1,-3.2,x,
COc1cccc(-c2cc(C(=O)NCC3CCCO3)c3cc(Br)cc(C)c3n2)c1 (centres undefined),x,x,-0.1,42.9,x,
O=c1c2c([nH]c3ccc(Br)cc13)CCCC2,x,6.6%,-5.8,0.5,x,
Cc1[nH]n(-c2ccccc2)c(=O)c1C(=O)c1cccc(F)c1,5.5,-7.6%,23.7,11.4,x,
Cc1ccc(C2(C)NC(=O)N(CC(=O)NNC(=O)c3ccoc3C)C2=O)cc1 (centres undefined),x,x,0.2,-10.4,x,
Cc1cccc(N2CC(c3nc4ccccc4[nH]3)CC2=O)c1 (centres undefined),-0.1,-1.3%,-1.7,8.7,x,
COc1ccccc1CNC(=O)CSc1n[nH]c(N)n1,x,x,-2.0,-0.8,x,
O=CNCc1nc2ccccc2n1CCCc1ccccc1,x,x,3.2,2.4,x,
CCOC(=O)C1=NOC(CNC(=O)C2=NOC(CNC(=O)c3c(-c4ccccc4Cl)noc3C)C2)C1 (centres undefined),1.9,-0.7%,0.4,-0.4,-44.3,
CCN(CC)CCCNC(=O)CN1C(=O)CSc2ccc(S(=O)(=O)N3CCOCC3)cc21,13.5,2.8%,-1.0,0.6,-8.6,
COCCN(C(=O)CSCC(=O)Nc1cccc(C)c1)c1c(N)n(Cc2ccccc2)c(=O)[nH]c1=O,x,x,-0.8,-5.1,x,
CC(C)C12CN3CC(C(C)C)(CN(C1)C3c1ccccc1O)C2=O (centres undefined),3.3,-14.3%,5.0,-2.1,-19.9,
CC1=NNC(=O)C1Cc1c(Cl)cccc1Cl (centres undefined),x,x,90.8*,8.2,x,
COC(=O)C1=C(N)Oc2cc(C)n(CC3CCCO3)c(=O)c2C1c1ccc(Cl)c(Cl)c1 (centres undefined),-6.4,-1.6%,9.0,-7.0,5.1,
COCC(=O)Nc1ccc(S(=O)(=O)Nc2ncccn2)cc1,7.0,-10.1%,x,x,6.7,
COCCNC(=S)N=Nc1c(O)[nH]c2ccc([N+](=O)[O-])cc12,x,8.0%,1.7,36.9,x,
CCOC(=O)c1c(C)[nH]c(C(=O)OCC(=O)c2ccc3c(c2)NC(=O)CO3)c1C,x,x,-1.2,-3.3,x,
CCc1ccc(CNC(=O)C2CCCN(c3nnc(C)c4c(C)n(-c5ccccc5)nc34)C2)cc1 (centres undefined),x,x,2.4,91.5,x,
COc1cccc(C(=O)NCCCNC(=O)c2cccnc2)c1,x,x,-1.2,-0.9,x,
COc1ccc(N)cc1C#N,2.5,77.9%,x,1.4,-44.4,Arbovirus inh repeat=1.5
NS(=O)(=O)c1ccc(CCNC(=O)c2ccccc2F)cc1,8.3,-5.5%,1.6,-10.7,-4.9,
Cc1ccc(NC(=O)C2=C(O)CCn3c2nc2ccccc23)cc1,-27.4,77.8%,2.3,65.8,-34.7,
O=C(c1cncc(Br)c1)N1CCN(c2ccc(N3CCOCC3)nn2)CC1,0.3,-1.1%,-3.8,1.2,-5.6,Arbovirus inh repeat=1.6
Cc1cc(Cl)ccc1N=C1N=C(N)c2ccccc21,11.9,-3.6%,1.0,5.6,-22.3,
Cn1c(-c2nonc2N)nc2ccccc21,x,x,7.2,0.6,x,
Cc1cccc(N2CCN(C(=O)c3cc(C)oc3C)CC2C)c1 (centres undefined),-16.3,5.0%,0.2,9.6,7.5,
CCc1c(C)nc(SCC(=O)N2CCN(c3ccccc3)CC2)[nH]c1=O,0.8,1.6%,-0.5,3.0,x,
COc1ccc(C(=O)CSc2nc3nc(C)cc(C)n3n2)cc1OC,14.2,-6.6%,1.0,-0.1,-31.4,
CC(=O)Nc1ccc(/C=N/Nc2ccc(C(=O)c3c(C)cc4ccccn34)cc2[N+](=O)[O-])cc1,x,0.5%,-1.0,10.5,x,
Cc1nc(N2CCN(C(=O)c3ccco3)CC2)c2c3c(sc2n1)CCC3,6.6,6.5%,-0.2,50.3,-26.0,Arbovirus inh repeat=-4.9
COc1ccc(NC(=O)N2CCCC2)cc1OC,-2.5,-3.9%,-1.3,0.4,-47.4,
# (continued)
SMILES,Arbovirus inh,Mtb growth,RecA intein inh,Mtb bLac sens,YopH PTP inh,others
Cc1onc(-c2ccccc2)c1C(=O)Nc1cccc(OC(C)C)c1,-6.6,-10.6%,2.7,-5.8,-30.5,
CCOC(=O)C1CCN(CC(=O)Nc2ccc(OC)c(Cl)c2)CC1,5.5,1.5%,0.9,-5.8,x,
COCCCN1C(=O)C(=O)/C(=C(/O)c2ccc(OCC(C)C)cc2)C1c1cccnc1 (centres undefined),8.8,-9.2%,-0.4,-5.0,-2.5,
Cc1ccc2[nH]c(C(=O)O)c(NC(=O)c3ccccc3[N+](=O)[O-])c2c1,-11.7,2.9%,2.3,-7.2,-26.3,
COc1cc(C(=O)Nc2cccc(NC(=O)c3ccccc3)c2)cc(OC)c1OC,x,x,0.8,0.5,x,
O=C(Nc1cccc(-c2cccc(Cl)c2)c1)C1CCN(CC2CCOC2)CC1 (centres undefined),x,x,2.9,-0.2,x,
CCOc1ccc(C(C(=O)NC2CCCCC2)N(CCOC)C(=O)c2snc(C(N)=O)c2N)cc1 (centres undefined),x,x,1.0,6.1,x,
Cc1cc(C)c2c(N)c(C(=O)NN3CC(=O)N(c4ccccc4)CC3=O)sc2n1,x,x,-21.5,2.9,x,
